A647 fluor = qHTS Assay for Spectroscopic Profiling in A647 Spectral Region; Compound fluorescence, A647 channel (570/671 nm), Tris buffer; max dye-equivalent concentration, M; 59,000 tested, under 10 active; AID 592, 2007; active means above 1 µM dye equivalent; inconclusive means 0.1 to 1 µM; inactive means 0.1 µM or less;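 also: values scaled relative to a standard on each plate; highest value over a series up to 38 µM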
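Fluorescence read (570 nm ex, 671 nm em) after 15 min RT incubation of compounds in 100 mM Tris buffer, pH 8.0; values expressed as dye-equivalent concentration against a six-point A647 standard series on each plate.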
AID923 = qHTS Assay for Allosteric/Competitive Inhibitors of Caspase-1: Spectroscopic Profiling in AFC Spectral Region. compound fluorescence, AFC spectral region (405/520 nm); almost no hit is shown here. Potency, µM (top dose mostly 57.5 µM), without a hit: top-dose fluorescence increase, most hits filed as activators. hit rate 1.1% among 75,000. AID 923, 2007; active = well fitted activation curve with a large enough effect; inconclusive = small, poorly fitted or top-dose-only effect;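 also: potency is read from the fitted curve at half-maximal effect; 0% is about no effect; scaled to a free AFC standard on each plate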
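Baseline compound fluorescence (AFC region, 405 nm ex/520 nm em) taken from the intercept of kinetic reads with 50 nM caspase-1 and 5 uM Ac-WEHD-AFC; normalized to an on-plate AFC standard curve; compounds titrated up to 57 uM.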
Resorufin fluor = qHTS Assay for Spectroscopic Profiling in Resorufin Spectral Region; max dye-equivalent concentration, M; Compound fluorescence, resorufin region 547/598 nm, buffer; stronger effect = higher value; hit rate 0.04% among 59,000; AID 588, 2007; active = above 10 nM dye equivalent; inconclusive = 1 to 10 nM; inactive = 1 nM or less; a few of its hits are not listed in these tables; also: highest value over a series up to 38 µM
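Read-out: intrinsic compound fluorescence at ex 547/em 598 nm after 15 min at RT in pH 8.0 Tris (100 mM). Values expressed as resorufin-equivalent concentration from per-plate standard series.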
TSHR agonist = qHTS Assay for Agonists of the Thyroid Stimulating Hormone Receptor | hit rate 0.48% among 73,000 | Thyrotropin receptor (Homo sapiens), P16473 | HEK293-CNG-TSHR cells (CNG channel as cAMP sensor), membrane potential dye, cAMP | Potency, µM (series often up to 57.1 µM), for inactives: at the highest dose activation, most hits filed as activators; active = well fitted activation curve of enough size with the parental cells flat; inconclusive = any curve in the parental cells; inactive = parental cells flat and receptor cells flat or falling; also: potency is read from the fitted curve at half-maximal effect; % of control where 0% means no effect; weak receptor curves with flat parental cells got no call and are not listed
Target sequence (P16473 whole entry, looked up): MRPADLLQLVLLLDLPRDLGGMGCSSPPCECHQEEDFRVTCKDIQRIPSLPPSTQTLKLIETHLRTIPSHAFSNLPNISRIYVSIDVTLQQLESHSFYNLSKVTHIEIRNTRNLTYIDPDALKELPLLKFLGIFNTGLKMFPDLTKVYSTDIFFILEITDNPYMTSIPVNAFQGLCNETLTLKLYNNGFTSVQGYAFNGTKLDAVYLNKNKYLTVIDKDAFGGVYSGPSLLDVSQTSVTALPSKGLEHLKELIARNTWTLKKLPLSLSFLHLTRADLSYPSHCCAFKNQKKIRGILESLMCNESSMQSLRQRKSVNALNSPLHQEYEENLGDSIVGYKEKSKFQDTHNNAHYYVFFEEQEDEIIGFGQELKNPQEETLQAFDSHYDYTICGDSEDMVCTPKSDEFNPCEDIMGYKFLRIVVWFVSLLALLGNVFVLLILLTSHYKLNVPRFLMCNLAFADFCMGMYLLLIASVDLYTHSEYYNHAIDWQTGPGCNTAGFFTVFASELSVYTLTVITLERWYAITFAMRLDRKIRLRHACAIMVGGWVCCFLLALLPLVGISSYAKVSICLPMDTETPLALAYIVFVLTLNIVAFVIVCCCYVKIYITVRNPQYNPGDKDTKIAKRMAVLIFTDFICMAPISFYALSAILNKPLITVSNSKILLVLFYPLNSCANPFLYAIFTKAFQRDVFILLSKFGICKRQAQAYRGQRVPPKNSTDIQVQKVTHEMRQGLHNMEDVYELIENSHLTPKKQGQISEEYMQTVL
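HEK 293 cells stably expressing TSHR and a cAMP-gated CNG channel; parental CNG-only cells as counterscreen. Cells preloaded 60 min with membrane potential dye plus 100 uM RO 20-1724, then compound 30 min; fluorescence read at 590 nm.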
A488 fluor = qHTS Assay for Spectroscopic Profiling in A488 Spectral Region; compound autofluorescence, A488 spectral region, dye equivalency; stronger effect = higher value; max dye equivalency, M; hit rate 0.1% among 59,000; active = above 10 nM dye equivalent; inconclusive = 1 to 10 nM; inactive = 1 nM or less; about half of its hits are not listed in these tables;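 also: highest value over a series up to 38 µM; compound alone in buffer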
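Compounds pin-transferred into 100 mM Tris buffer, pH 8.0, incubated 15 min at room temperature, then imaged with 480 nm excitation/540 nm emission filters. Fluorescence converted to Alexa 488 dye-equivalent concentration via an on-plate six-point A488 standard curve.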
Active calls of the source: *; i = inactive; ? = inconclusive; · = no result given; & = joins results of further samples; [ ] = dose if it differs, or a comment. An excerpt, so the mix of outcomes need not match the whole.

Below each SMILES – A488 fluor	TSHR agonist	AID923	Resorufin fluor	A647 fluor
Cc1ccc2c(c1)NC(=O)C(CC(=O)NCCCN1CCN(C3CCCCC3)CC1)O2 (centres undefined)
    ·	-11%	-0.1%	·	·
O=c1c2ccccc2nc2c3ccccc3c3nncn3n12
    i	8%	-0.7%	i	4.3e-09
CCCCC(CC)CN (centres undefined)
    ·	-11%&-2%	-1.5%&-1.8%	·	·
CC1CCCCN1CCNC(=O)c1cc2c(=O)n(C)c3ccccc3c2n1C (centres undefined)
    ·	28%	4.4%	·	·
O=C(C1CC1)N1CCc2cc(S(=O)(=O)NCCC3=CCCCC3)ccc21
    i	?	1.4%	i	1e-08
O=C(Nc1ccccc1)OCc1ccccn1
    i	-6%	-1.3%	i	2.8e-09
C#CCOC(=O)c1ccccc1C(=O)n1nnc2ccccc21
    i	29%	-0.6%	i	4.2e-08
CC(C)OC(=O)CN1C(=O)C(C)(C)Oc2ccc(C(=O)NC(C)(C)C)cc21
    i	9%	0.3%	i	1.7e-09
CC1Cc2cc(C(=O)O)ccc2O1 (centres undefined)
    i	1%	0.4%	i	1e-09
Nc1ncnc2c1ncn2CCOc1ccccc1
    i	11%	-1.8%	i	1e-09
O=C(CSc1nnnn1-c1ccc2c(c1)CCC2)NCc1cccs1
    i	?	0.6%	i	1e-09
O=C(CSc1nc(-c2ccco2)cc(C(F)(F)F)n1)NCC1CCCO1 (centres undefined)
    i	2%	-0.1%	i	4.2e-09
COCCn1c(SCC(=O)Nc2nnc(C)s2)nnc1-c1ccncc1
    i	3%	-1.1%	i	1e-09
c1nc(N2CCNCC2)c2cc(-c3ccc4c(c3)OCO4)ccc2n1
    i	7%	-0.1%	i	3.7e-09
CC1Cc2ccccc2N1C(=O)COC(=O)Cn1nnc(-c2ccccc2)n1 (centres undefined)
    i	12%	-1.2%	i	1e-09
CN1CCc2c(sc3c2c(=O)n(-c2cccc(Cl)c2)c2nncn32)C1
    i	6%	1.6%	i	3.5e-08
O=C(Nc1ccccc1OC(F)F)c1ccc(F)cc1
    i	-3%	2.3%	i	2.7e-08
Cn1cccc1Cc1nnc(SCC(=O)Nc2ccccc2F)n1-c1ccc(F)cc1
    ·	?	-3.1%	·	·
O=C(Nc1cc(C(=O)N2CCOCC2)cc(C(=O)N2CCOCC2)c1)c1cc(F)c(F)cc1Cl
    i	-6%	-2.0%	i	1.5e-09
O=C(NCc1ccccc1)N1CCN(c2ccc(Cl)c(Cl)c2)CC1
    i	9%[11.4 µM]	-0.7%	i	4.1e-08
CCCCCC1=C2CNC(CC(C)C)(C(=O)OC)C=C2C(C)C1=O (centres undefined)
    ·	?	5.6%	·	·
CCOC(=O)c1c(NC(=O)CSc2nnc(CNc3ccc(OC)cc3)n2C)sc(C)c1C
    i	-20%	-0.8%	i	1.7e-08
CCOc1cc(CN2CCN(c3cccc(C(F)(F)F)c3)CC2)ccc1O
    ·	15%	0.3%	·	·
CC(C)OC(=O)CSc1nc2ccccc2s1
    i	23%	-0.1%	i	1.3e-09
COc1cc(OC)c(C2=NOC(C(=O)NCc3ccc4c(c3)OCO4)C2)cc1Cl (centres undefined)
    i	?	-0.9%	i	1.6e-09
COCCNC(=O)C1CC(c2cccc(OC)c2)=NO1 (centres undefined)
    i	-2%	-0.6%	i	5.3e-09
CCCOc1ccccc1C1CC(=O)Nc2cc3c(cc21)OCO3 (centres undefined)
    i	?	1.8%	i	1.6e-08
CCOC(=O)CNC(=O)c1cc(C)oc1C
    i	-10%	4.9%	i	7.1e-09
COc1ccccc1CNc1ccnc(-c2ccccc2C(F)(F)F)n1
    i	?	-3.7%	i	1e-09
O=C(CNc1ccccc1)Nc1ccc(F)cc1
    i	2%	0.7%	i	1e-09
Nc1ccn([C@H]2O[C@@H](COP(=O)(O)O)[C@@H](O)[C@H]2O)c(=O)n1
    i	2%[11.4 µM]	-3.1%[11.5 µM]	i	1e-09
COc1cc(NC(=O)COc2cccc(OC)c2)cc(OC)c1
    ·	23%	1.0%	·	·
Cc1occc1C(=O)NCc1ccccn1
    i	9%	3.6%	i	1e-09
O=C(COC(=O)C1CC1)Nc1ccc(Oc2ccccc2)cc1
    i	-5%	-0.9%	i	1e-09
CCOC(=O)C1CCN(C(=O)CN(c2cccc(C(F)(F)F)c2)S(C)(=O)=O)CC1
    i	1%	-0.2%	i	5.4e-09
Nn1c(SCC(=O)Nc2ccccc2F)nnc1-c1cccnc1
    i	-2%	0.9%	i	1e-09
CCOC(=O)N1CCN(C(=O)c2cccc(NC3=NC4CS(=O)(=O)CC4S3)c2)CC1 (centres undefined)
    i	0%	1.5%	i	1.7e-08
Cc1ccc(C(=O)N2CCN(c3ccc(Cl)cc3)CC2)cc1
    i	?	-0.3%	i	3.5e-09
CCC(c1nnnn1CCOC)N1CCN(Cc2ccccc2OC)CC1 (centres undefined)
    i	?	-2.0%	i	2.8e-09
CC1CCc2nc(NCCO)nc(C(F)(F)F)c2C1 (centres undefined)
    i	4%	0.2%	i	5e-09
CS(=O)(=O)Nc1cccc(-c2ccc3ncnc(NC4CCNCC4)c3c2)c1
    i	?	0.5%	i	3.3e-08
Cn1c(SCC(=O)N2CCc3ccccc32)nnc1C1CC1
    i	·	11%	i	4.8e-08
CCNc1nc(NC(C)(C)C)nc(SC(C(C)=O)C(C)=O)n1
    i	12%	-1.6%	i	8.5e-09
COc1ccc(-c2nc(CS(=O)CC(=O)NCc3ccc(Cl)cc3)c(C)o2)cc1 (centres undefined)
    ·	10%	1.5%	·	·
Cc1cc(C)cc(NC(=O)C2CCN(S(=O)(=O)c3c(C)n[nH]c3C)CC2)c1
    i	-2%	-2.3%	i	4.1e-09
O=C(O)C1=CC(=C(c2ccc(O)c(C(=O)O)c2)c2ccc(O)c(C(=O)O)c2)C=CC1=O
    i	·	5.6%&7.8%	i	1.5e-09
Cc1cc(N2CCN(C(c3ccccc3)c3ccccc3)CC2)n2ncnc2n1
    i	?	-1.3%	i	4.6e-09
COCn1c(COc2ccccc2)nc2ccccc21
    ·	19%[11.4 µM]	0.0%	·	·
CO[C@H]1COC(=O)C/C=C\[C@@H](C)COC(=O)[C@@H](OCc2ccccc2)/C=C\[C@@H]1C
    ·	?	-2.4%[11.5 µM]	·	·
O=C(NCC1CCCO1)c1cccc(NC(=O)c2ccco2)c1 (centres undefined)
    i	-12%	-1.0%	i	1.3e-08
CCOc1cccc(/C(O)=C2/C(=O)C(=O)N(CCOC)C2c2ccco2)c1 (centres undefined)
    i	?	1.0%	i	1.3e-08
O=c1cc(CNCCCO)c2ccccc2[nH]1
    i	-1%	-1.0%	i	1.5e-08
Nn1c(=O)c2ccccc2n2c(SCc3ccccc3)nnc12
    i	9%	-1.0%	i	3.9e-08
O=C(OCc1nnc(-c2ccccc2)o1)c1cc(S(=O)(=O)N2CCOCC2)c(Cl)cc1Cl
    i	17%	-0.3%	i	4.7e-08
O=P(O)(O)COc1ccccc1P(=O)(c1ccccc1)c1ccccc1
    i	-4%	0.3%	i	2.9e-08
COC(=O)CN(c1cc(C(F)(F)F)ccc1Cl)S(C)(=O)=O
    ·	2%	-0.6%	·	·
Cc1ccc(CCNC(=O)C2CCN(S(=O)(=O)c3cccc4nonc34)CC2)cc1
    i	-3%	3.3%	i	1e-09
CC1=C(C(=O)OCC2CCCO2)C(c2ccccc2)NC(=O)N1 (centres undefined)
    ·	-1%[11.4 µM]	-0.1%	·	·
CC(C)(C)C(=O)OCOC(=O)[C@@H]1N2C(=O)[C@@H](N=CN3CCCCCC3)[C@H]2SC1(C)C
    i	4%[25.6 µM]	-1.2%[25.7 µM]	i	1e-08
CC1CCN(S(=O)(=O)c2ccc(Cl)cc2Br)CC1
    ·	?	0.0%	·	·

As a working copy, some entries already given:
Below each SMILES – A488 fluor	TSHR agonist	AID923	Resorufin fluor	A647 fluor
CC(C)(C)C(=O)OCOC(=O)[C@@H]1N2C(=O)[C@@H](N=CN3CCCCCC3)[C@H]2SC1(C)C
    i	4%[25.6 µM]	-1.2%[25.7 µM]	i	1e-08
CC1CCN(S(=O)(=O)c2ccc(Cl)cc2Br)CC1
    ·	?	0.0%	·	·

Some of these compounds in order of number of heavy atoms, rising.
Below each SMILES – A488 fluor	TSHR agonist	AID923	Resorufin fluor	A647 fluor
COCn1c(COc2ccccc2)nc2ccccc21
    ·	19%[11.4 µM]	0.0%	·	·
Cn1c(SCC(=O)N2CCc3ccccc32)nnc1C1CC1
    i	·	11%	i	4.8e-08
O=C(NCC1CCCO1)c1cccc(NC(=O)c2ccco2)c1 (centres undefined)
    i	-12%	-1.0%	i	1.3e-08

Other structures.
Below each SMILES – A488 fluor	TSHR agonist	AID923	Resorufin fluor	A647 fluor
NCCS(=O)O
    i	?	-1.4%	i	4.6e-09
Cc1nc(NC2CCCCC2)c2nc(-c3ccccc3)n(CCN3CCCC3)c2n1
    ·	?	1.9%	·	·
O=C(C1CCCN(c2ncccn2)C1)N1CCc2ccccc21 (centres undefined)
    i	13%	0.8%	i	4.5e-08
COc1ccc(CC(=O)N2CCN=C2SC)cc1
    ·	1%	3.1%	·	·
N#CCCn1cnc2c(=S)nc[nH]c21
    i	·	·	i	4.2e-08
Cc1nc2nc(Cc3ccccc3)nn2c(C)c1Cl
    i	20%	-1.8%	i	1e-09
CCC(=O)OC1=C2C(=Nc3c(c(=O)n(C)c(=O)n3C)C2c2ccccc2)c2ccccc21 (centres undefined)
    i	·	·	i	2.1e-08
CCOc1ccc(OCC)c(NC(=O)C2CCN(S(=O)(=O)c3cccc4nonc34)CC2)c1
    i	-10%	-0.9%	i	1e-09
Cc1cc(C(F)(F)F)nn1CC(=O)N1CCCCC1C (centres undefined)
    i	-2%	0.9%	i	2e-08
COCCN1CC(=O)N(c2cccc(C)c2C)C(c2ccc(Cl)cc2)C1=O (centres undefined)
    i	20%	-0.7%	i	1e-09
COc1ccccc1NC(=O)C1=C(C)Nc2nnnn2C1c1ccccc1OC (centres undefined)
    i	-5%	1.4%	i	2.8e-08
O=C(Nc1cc(C(F)(F)F)ccc1Cl)C1CCN(c2nnc(-n3cccc3)s2)CC1
    i	5%	0.5%	i	2.8e-09
Cc1cc2c(nc1C)CCCN2C[C@H](C)O/N=C1/[C@H]2O[C@@H]2[C@@H](O)[C@H]2[C@H]1CCn1c(=O)n(-c3ccccc3)c(=O)n12
    ·	-2%[11.4 µM]	4.9%[11.5 µM]	·	·
CN(C)c1ccc(CN(C(=O)C2COc3ccccc3O2)C2CCS(=O)(=O)C2)cc1 (centres undefined)
    i	-4%[11.4 µM]	1.5%	i	1e-09
CCCC(=O)NC(C)c1nc2ccccc2n1C (centres undefined)
    ·	-1%	1.6%	·	·
COCCN(CCOC)Cc1cc(=O)oc2cc3c(cc12)CCC3
    i	18%	4.4%	i	1e-09
COc1ccc(Cl)cc1C(=O)N(Cc1nc(-c2cccc(C)c2)no1)C(C)C
    ·	25µM*	-1.6%	·	·
CCOc1ccccc1C1C(C(=O)Nc2ccc(OC)cc2)=C(C)Nc2nc(CCCO)nn21 (centres undefined)
    ·	-8%	-1.6%	·	·
CC(C)COc1ccc(-c2nnc(-c3ccco3)o2)cc1
    i	?	0.7%	i	3.2e-08
CCN(CC(=O)Nc1cccc(OC)c1)C(=O)C1CCN(C(=O)Nc2ccccc2)CC1
    i	-5%	-0.7%	i	2.3e-09
Cc1ccc2[nH]c(=O)c(-c3nc4cc(C)ccn4c3NCc3ccco3)cc2c1
    i	?	0.8%	i	1e-09
